Mtb bLac sens: beta-lactam sensitization of Mtb H37Rv, H37Rv. M. tuberculosis H37Rv growth with meropenem, percent inhibition; hits of this screen are not shown here. inhibition, % at 25 µM. hit rate 0.27% among 330,000;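 active = about 74% or more and at least 40 points above the plate without the antibiotic, then above 30% in a dose series; inconclusive = first-round hits that could not be retested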;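 note: growth measured after seven days incubation then overnight dye step; 0% = bacteria only wells and 100% = bacteria with antibiotic; twin plates without the antibiotic show which effects depend on it; some results filed as inactive read as strong as hits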
* hit, by the source's call; ? = inconclusive.

Start of the data: the first 6 records, to show the layout:
molecule	Mtb bLac sens
NC(=O)c1ccccc1NC(=O)c1cc(S(=O)(=O)N2CCCCC2)ccc1N1CCOCC1	-7
COc1cc(OC)cc(C(=O)N[C@H](C(=O)OCC(=O)c2ccc(C)c([N+](=O)[O-])c2)C(C)C)c1	1
Cc1ccc(OCc2nnc(SCC(=O)Nc3ccc(N4CCOCC4)cc3)o2)cc1	-5
Cc1nc(-c2ccc(C(=O)Nc3cccc(F)c3)cc2)cs1	1
CCOC(=O)/C=C1\SC(C)C(=O)N1CC(=O)N(CCC#N)c1ccccc1 (stereo not given)	-4
O=C(COC(=O)c1ccc(F)c(S(=O)(=O)N2CCOCC2)c1)c1ccc(Cl)cc1	-3

All compounds of this part, from the start:
molecule	Mtb bLac sens
NC(=O)c1ccccc1NC(=O)c1cc(S(=O)(=O)N2CCCCC2)ccc1N1CCOCC1	-7
COc1cc(OC)cc(C(=O)N[C@H](C(=O)OCC(=O)c2ccc(C)c([N+](=O)[O-])c2)C(C)C)c1	1
Cc1ccc(OCc2nnc(SCC(=O)Nc3ccc(N4CCOCC4)cc3)o2)cc1	-5
Cc1nc(-c2ccc(C(=O)Nc3cccc(F)c3)cc2)cs1	1
CCOC(=O)/C=C1\SC(C)C(=O)N1CC(=O)N(CCC#N)c1ccccc1 (stereo not given)	-4
O=C(COC(=O)c1ccc(F)c(S(=O)(=O)N2CCOCC2)c1)c1ccc(Cl)cc1	-3
COc1cccc(NC(=O)CN(C)C(=O)CC(NC(=O)c2ccccc2Cl)c2ccccc2)c1 (stereo not given)	6
Cc1cccc(NC(=O)C(C)Sc2nc3ccccc3c(=O)n2CCCN2CCOCC2)c1 (stereo not given)	-5
COc1cc(NC(=O)CN2C(=O)NC(CC(C)C)C2=O)cc(OC)c1OC (stereo not given)	-9
O=C(NCCCN1CCCC1=O)c1cc(-c2ccc(F)cc2)nc2ccccc12	4
COc1ccc(C(=O)OCC(=O)c2ccc[nH]2)c(OC)c1	-7
COc1ccc(OC)c(NC(=O)CSc2nc3nc(C)cc(C)n3n2)c1	2
Cc1ccc(SCC(=O)OCC(=O)NCCc2ccccc2)cc1	-4
COc1ccc2c(c1)C(=O)N1[C@H]3c4cc(OC)ccc4OC[C@@H]3[C@H](c3ccccc3)[C@]1(C)C(=O)N2	14
Cc1ccc(S(=O)(=O)N(C)c2ccc(OC(=O)c3cc(=O)[nH]c4ccccc34)cc2)cc1	-4
CCc1ccc(OC)c(S(=O)(=O)NCc2cccs2)c1	-6
Cc1ccc(S(=O)(=O)NC(CC(C)C)C(=O)NCC(c2ccco2)N2CCCCC2)cc1 (stereo not given)	-2
O=C(COC(=O)/C=C/c1ccccc1Cl)NCC1CCCO1 (stereo not given)	0
CCC(CO)Oc1cc(NC(=O)c2cccc(F)c2)c2ncn(C(C)C)c2c1 (stereo not given)	-3
NC(=O)NCCCC(=O)O	1
CC(=O)Nc1ccc(S(=O)(=O)NCCC(=O)OCc2ccccc2F)cc1	-1
Cc1ccc(S(=O)(=O)N2CCC(C(=O)Nc3ccc(C(C)C)cc3)CC2)cc1	-5
CCN(CC(=O)Nc1ccccc1OC)C(=O)c1ccc2[nH]c3c(c2c1)CC(C)CC3 (stereo not given)	-1
COc1cc(/C=C/C(=O)OCC(=O)N2CCCc3ccccc32)ccc1O	17
O=C(COC(=O)COc1ccc(Cl)cc1Br)NC1CCCCCC1	0
C[C@H](CO)N1C[C@H](C)[C@H](CN(C)S(=O)(=O)c2ccccc2)Oc2c(NS(C)(=O)=O)cccc2C1=O	-9
NS(=O)(=O)c1ccc(CCNC(=O)COC(=O)c2ccc([N+](=O)[O-])o2)cc1	67
CN(C(=O)CSc1nc2scc(-c3ccccc3)c2c(=O)[nH]1)c1ccccc1	-10
CCC(CO)Oc1cc(NC(=O)c2ccc(C)cc2)c2ncn(C(C)C)c2c1 (stereo not given)	-5
COc1ccccc1NCC(=O)N1CCN(S(=O)(=O)c2ccccc2)CC1	-2

An excerpt from above in order of formula weight, lowest first:
molecule	Mtb bLac sens
NC(=O)NCCCC(=O)O	1
O=C(COC(=O)/C=C/c1ccccc1Cl)NCC1CCCO1 (stereo not given)	0
COc1cc(/C=C/C(=O)OCC(=O)N2CCCc3ccccc32)ccc1O	17
C[C@H](CO)N1C[C@H](C)[C@H](CN(C)S(=O)(=O)c2ccccc2)Oc2c(NS(C)(=O)=O)cccc2C1=O	-9

Further compounds
molecule	Mtb bLac sens
Cc1nn(C)c(C)c1NC(=O)COc1ccc(Cl)cc1	-4
O=C(c1cnn(C(=O)CN2CCCC2=O)c1)c1ccccc1O	-4
COc1ccc(NC(=O)COC(=O)CCc2ccc(S(=O)(=O)N3CCOCC3)cc2)c(OC)c1	6
CSCCC(NC(=O)c1ccccc1)C(=O)NCC(C)(C)N1CCOCC1 (stereo not given)	-8
Cn1nnnc1Sc1ncnc2scc(-c3cccc(Br)c3)c12	98
Oc1c(CNc2ccccc2)cc(COCc2ccccc2)c2cccnc12	39
O=C(COC(=O)c1ccccc1O)NC(c1ccccc1)c1ccccc1	1
CCc1noc(C)c1C(=O)Nc1nc(-c2ccc(F)cc2)c(C)s1	82
Cc1nn(-c2ccccc2)c(C)c1/C=C/C(=O)OCC(=O)Nc1ccc(S(N)(=O)=O)cc1	-7
COc1cccc(-n2c(SCC(=O)NC3CCS(=O)(=O)C3)nc3ccccc3c2=O)c1 (stereo not given)	-8
COc1ccc2nc(-c3ccccc3)cc(C(=O)OCC(=O)N3CC(C)OC(C)C3)c2c1 (stereo not given)	65
C[C@H](O)Cc1cn(-c2cc3cc(C#Cc4ccsc4)ccc3oc2=O)nn1	1
CSc1ccc(/C=C/C(=O)OCC(=O)c2ccc[nH]2)cc1	15
CCC1CCC2(CC1)NC(=O)N(CC(=O)NCc1ccccc1Cl)C2=O (stereo not given)	-13
O=S(=O)(Nc1cc(Cl)ccc1N1CCOCC1)c1ccccc1Cl	4
O=c1ccc2ccc(O[C@@H]3O[C@H](CO[C@@H]4OC[C@](O)(CO)[C@H]4O)[C@@H](O)[C@H](O)[C@H]3O)cc2o1	-4
CCOC(=O)c1c(C)[nH]c(C(=O)OCC(=O)N2CCN(S(=O)(=O)c3ccc(C)cc3C)CC2)c1C	-1
CC(OC(=O)c1cccc(-n2cnnn2)c1)C(=O)NC1(C#N)CCCCC1 (stereo not given)	-2
Cc1noc(C)c1CSCC(=O)Nc1cccc(C(F)(F)F)c1	-10
Brc1ccc(CN2CC[C@H]3C=CCc4cccc(c43)C2)cc1	17
CCOc1ccc(S(=O)(=O)Nc2cccc(C(=O)NCC(c3ccc(OC)cc3)N3CCOCC3)c2)cc1 (stereo not given)	-6
O=C(NC1CC1)C1CCN(S(=O)(=O)c2cc([N+](=O)[O-])ccc2Cl)CC1	-5
COc1ccc(C(CNC(=O)CNC(=O)c2cccc(C)c2)N2CCOCC2)cc1 (stereo not given)	-5
C[C@]12CCC3C(CC[C@H]4C[C@H](O)CC[C@]34C)C1C[C@@H](O)[C@@H]2O (stereo not given in full)	-4
CC(=O)NC(c1cccs1)c1cc(F)c2cccnc2c1O (stereo not given)	10
Cn1c(N)c(C(=O)COC(=O)Cc2cccc(C(F)(F)F)c2)c(=O)n(C)c1=O	-4
CCOc1ccc(C(=O)COC(=O)CNC(=O)C2CCCCC2)cc1	-9
CC(C)NC[C@H](O)COc1ccc(CC(N)=O)cc1	-12
Cc1cc(=O)oc2cc(NC(=O)CCOc3ccccc3)ccc12	49
Cc1cccc(NC(=O)CSCC(=O)N(C)Cc2ccc(Cl)c(Cl)c2)c1	6

Continuation.
Molecule	Mtb bLac sens
Cc1ccc(NC(=O)C(c2ccccc2)N2CCN(CC(=O)NC3CC3)CC2)cc1 (stereo not given)	-5
O=C(Nc1cc(C(F)(F)F)ccc1N1CCOCC1)C1CC1	-1
CC(C(=O)N1CCN(C(=O)c2ccco2)CC1)N1C(=O)NC2(CCCCC2C)C1=O (stereo not given)	-3
Cc1ccc(S(=O)(=O)N(C)CC(=O)NCC(=O)Nc2ccc(F)c(F)c2F)cc1	1
Nc1c(N(CCCO)C(=O)C2CCCC2)c(=O)[nH]c(=O)n1Cc1ccccc1	-7
CCn1c(CCC(N)=O)nnc1SCC(=O)Nc1cccc(S(=O)(=O)N2CCCC2)c1	4
COCCCNC(=O)Cn1cnc2c(OCc3ccccc3)ncnc21	1
COc1cc2c3c(c1OC)Oc1ccc(cc1)C[C@H]1c4c(cc(OC)c(OC)c4Oc4ccc(cc4)C[C@@H]3N(C)CC2)CCN1C	2
CC(=O)c1ccc(N2CCN(C(=O)C3CCN(S(=O)(=O)c4ccc(F)cc4)CC3)CC2)cc1	-1
CCc1cc(C(=O)N2CCN(c3ccccc3OC)CC2)sc1C	5
CC(C)(C)[C@@H]1COC(=O)[C@H](Cc2ccc(F)cc2)CC/C=C\C[C@@H](CC(=O)NCCO)C(=O)N1	2
COc1ccc(CNC(=O)C2CCN(S(=O)(=O)c3ccc(Br)s3)CC2)cc1	0
COc1cccc(CN(C)C(=O)C2CCC(=O)N(Cc3cccc(F)c3)C2)c1 (stereo not given)	-1
CC(=O)c1ccc(OC(=O)C2CSC3(C)CCC(=O)N23)cc1 (stereo not given)	4
CC1(c2ccccc2Cl)NC(=O)N(CC(=O)Nc2ccc(N3CCOCC3)cc2)C1=O (stereo not given)	-3
O=C(COC(=O)c1ccc(O)cc1)Nc1ccc2c(c1)OCCO2	-7
CC(NC(=O)c1ccc(S(=O)(=O)Nc2ccccc2)cc1)c1ccc(S(N)(=O)=O)cc1 (stereo not given)	2
CCCc1cc(C(=O)N/N=C/c2cccn2C)cs1	?
Cc1ccc(C(=O)CN(CCC(=O)O)C(=O)c2ccncc2)cc1	4
CCC1CCCCN1CCCNC(=O)c1ccc2c(=O)n(CCOC)c(=O)[nH]c2c1 (stereo not given)	-4
CCN1C(=O)[C@H]2[C@@H](c3ccc(-c4ccc(C(C)=O)cc4)c(OC)c3)N3CCCC[C@@]3(C(=O)OC)[C@H]2C1=O	0
CCOC(=O)C1CCN(C(=O)c2cccc(NS(=O)(=O)c3ccc(Br)cc3)c2)CC1	-2
CC(C)(C)C(=O)/C=C1\SCC(=O)N1CC(=O)N1CCN(c2ccccc2)CC1	15
CC(=O)Nc1ccc(SC[C@H](C)CN2CC[C@H](O)CCC2=O)cc1	5
C#CCOCCOCCOCCNc1nc(N2CCN(C(=O)CCCCCCCCCCNC(=O)[C@@H](CCSC)n3cc(CCO)nn3)CC2)nc(N2CCN(C(=O)CCCCCCCCCCNC(=O)[C@H]([C@@H](C)CC)n3cc(CCCCN=C(N)N)nn3)CC2)n1	97
COc1cc(OC)c(C(=O)NCc2ccc3c(c2)OCO3)cc1OC	0
COc1ccc(C)cc1NC(=O)CCCN1C(=O)CN(C)C1=O	-1
Cc1ccc(C)c(NC(=O)CCN2C(=O)C3CC=CCC3C2=O)c1 (stereo not given)	-2
CN(CC(=O)Nc1ccc(Cl)c(C(F)(F)F)c1)C(=O)CCCc1nc2ccccc2c(=O)[nH]1	0
CC(C)c1ccc(OCc2ccc(C(=O)N3CCCC3)o2)cc1	4
O=C(COC(=O)Cc1ccc(Cl)cc1)NC1CCCC1	-11
O=C(COc1ccccc1F)NNC(=O)c1cc(Br)ccc1Cl	-3
CCOC(=O)[C@H]1[C@H]2COc3ccc(Cl)cc3[C@@H]2N2C(=O)CN(C)C(=O)[C@@]12C	2
COc1ccc([C@H]2CC(=O)C=C(c3cccc(Br)c3)C2)cc1	4
CCOc1ccc(N(C(=O)c2snc(C(N)=O)c2N)C(C(=O)NCC2CCCO2)c2c[nH]c3ccccc23)cc1 (stereo not given)	2
O=C(/C=C/c1ccc(S(=O)(=O)N2CCOCC2)cc1)Nc1ccc(F)c(F)c1F	1
COc1ccccc1C(CNC(=O)c1ccco1)N1CCCC1 (stereo not given)	-3
CSc1ccccc1C(=O)OCC(=O)Nc1cccnc1Cl	-3
COC(=O)[C@]1(Cc2ccccc2)N[C@H](CN(C)S(=O)(=O)c2ccc(OC(F)(F)F)cc2)[C@@H]2C(=O)N(Cc3ccccc3)C(=O)[C@@H]21	1
CC(C)(O)CC[C@@H](O)[C@](C)(O)C1CC[C@@]2(O)C3=CC(=O)[C@]4(O)C[C@@H](O)[C@@H](O)C[C@]4(C)C3CC[C@]12C (stereo not given in full)	-1
COc1ccc(S(=O)(=O)Nc2cccc3c2O[C@H](CN(C)C(=O)Nc2c(C)noc2C)[C@@H](C)CN([C@H](C)CO)C3=O)cc1	-6
COc1ccc(NC(=O)c2cc(S(=O)(=O)N3CCCC3)ccc2C)cn1	-12
C=C[C@H](Cc1ccccc1)N(Cc1ccccc1)S(=O)(=O)N(Cc1ccccc1)[C@H](C=C)Cc1ccccc1	-2
COc1ccc(NS(=O)(=O)c2cccs2)cc1S(=O)(=O)N1CCOCC1	-6
COc1ccccc1CCC(=O)N1CCN(S(=O)(=O)c2cc(C(F)(F)F)ccc2Cl)CC1	-5
O=C(NC1(Cc2ccccc2)CCN(CCc2cccs2)C1=O)c1ccccc1 (stereo not given)	3
CC(C)(C)C1N=C(c2ccc3ccccc3c2)OC1=O (stereo not given)	-3
C=CCC[C@@H](Cc1ccc(F)cc1)C(=O)OC[C@@H](NC(=O)[C@@H](CC=C)CC(=O)N[C@H](CO)Cc1ccccc1)C(C)(C)C	1
COc1ccc(CCNC(=O)c2cc(S(=O)(=O)N3CCOCC3)ccc2F)cc1	-12
CCN(c1ccccc1)S(=O)(=O)c1cc(NC(=O)C2CC2)ccc1Cl	2
O=C(Nc1ccccc1N1CCOCC1)c1cc(=O)[nH]c2ccccc12	-2
CCOC(=O)c1c(C)[nH]c(NC(=O)NNC(=O)c2ccccc2Cl)c1C	-4
CNS(=O)(=O)c1cccc(C(=O)OCC(=O)N2CCN(C(=O)c3ccco3)CC2)c1	-2

Screens from PubChem.

The list is partial; rates above refer to the full screens.
